AID504770: growth inhibitors of E. coli YBA685 in a screen for V. cholerae RctB (chromosome II replication) inhibitors; E. coli YBA685 rctB-dependent plasmid, OD600 growth, 3 h; stronger effect = lower value; z-score (test concentration not listed); 130,000 tested, 0.27% active;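 active means z-score under -2 on both plates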;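 further: wells of about 30 µL received 100 nL stock; score is relative to mean and SD of the test wells; the first replicate is given; strong numbers were not always called active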
CapD inh: inhibitors of Bacillus anthracis CapD enzyme; purified CapD enzyme, fluorescence intensity read-out; stronger effect = lower value; some hits fall short of the stated cut; z-score (test concentration not listed); 140,000 tested, 0.23% active; AID 492967;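 active means z-score under -4 in either of two replicates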;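 further: stock transfer was 100 nL into about 40 µL; score is relative to mean and spread of the plate; one replicate is shown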
* hit, by the source's call; / = no result given; & = joins results of further samples.

Molecule | AID504770 | CapD inh
O=C(N/N=C/c1cc(Br)cc(Br)c1O)c1cc2ccccc2s1 | / | -0.02
CC(/C=N/N1CCN(c2ccccc2)CC1)=C\c1ccco1 | 0 | -1.4
CCOc1ccccc1Cn1c(=O)oc2ccccc21 | 0.7 | -0.095
CCN=c1sc(C(=O)NCCc2ccccc2)cc(=O)n1CC | -0.35 | /
O=c1[nH]c(C(F)(F)F)nc2c1cnn2Cc1ccccc1 | -0.4 | /
COC(=O)c1sc(N(C)C)c(C#N)c1-c1ccccc1 | 0 | -0.21
CCOC(=O)c1nc2ccccc2c(=O)n1/N=C/c1cc(Cl)cc(Cl)c1O | 1.4 | -0.075
O=S(=O)(/C=C/c1ccccc1)N1CCN(c2nc(-c3cccnc3)nc3ccccc23)CC1 | -0.55 | /
CC(C)Cc1c(C#N)c(N)nc(SCC(=O)c2cc3cc(Br)ccc3oc2=O)c1C#N | / | 1.8
C(=N\NC1=NCCCCC1)/c1ccc(N2CCOCC2)cc1 | -0.35 | /
Cc1[nH]cc(Br)c(=O)c1Oc1ncc(C(F)(F)F)cc1Cl | / | -0.57
COc1nccc(C(F)(F)F)c1C(=O)Nc1ccc(Cl)cc1Cl | -0.05 | -0.23
Cc1ccc(S(=O)(=O)/N=C(/c2ccccc2)N(C)c2ccc(O)cc2)cc1 | -3.1 | -0.36
O=S(=O)(c1cc(F)c(Br)cc1F)N1CCN(Cc2c(Cl)cccc2Cl)CC1 | / | 0.12
COC(=O)c1ccccc1CSC(=N)N | -0.85 | -0.045
O=S(=O)(c1cc(Cl)c(Cl)s1)N1CCN(c2cc(C(F)(F)F)ccn2)CC1 | / | 4.3
CCc1ccc(C2NC(=O)NC3=C2C(=O)CCC3)cc1 (centres undefined) | 0 | 4.9
CC(C(=O)Oc1ccc(C#N)cc1)N1C(=O)c2ccccc2C1=O (centres undefined) | 1.1 | /
O=C(Nc1nccs1)c1cc2cc(Cl)ccc2oc1=O | -0.8 | -0.11
OCC(O)CN=Cc1c(O)[nH]c2ccccc12 (centres undefined) | 0.65 | -2.6
CCOC(=O)c1cnn2c(C(F)F)cc(-c3ccc(C)cc3)nc12 | -0.8 | 67
O=C(O)CN(CC(=O)Nc1ccc2c(c1)OCCCO2)Cc1ccccc1 | -0.35 | -0.35
CC(Cc1c[nH]c2ccccc12)Nc1ccc2ccccc2n1 (centres undefined) | -0.25 | 32
COC(=O)Nc1ccc(S(=O)(=O)N2CCCC(C(F)(F)F)C2)cc1 (centres undefined) | / | -0.21
FC(F)(F)c1cc(-c2cccs2)nc2cc(-c3ccco3)nn12 | -0.45 | 0.23
O=c1oc(-c2cccs2)nc2ccccc12 | 1.9 | -0.025
O=c1c2ccccc2nnn1CSc1nnc(COc2ccccc2Cl)o1 | -0.55 | /
CC1=C(C(=O)OCCOc2ccccc2)C(c2ccc(O)cc2)C2=C(CC(c3ccccc3)CC2=O)N1 (centres undefined) | / | 21
O=C(Nc1cccc2ccccc12)OC1CCS(=O)(=O)C1 (centres undefined) | -0.7 | 33
O=C(O)Cn1cc(C(=O)C2CC2)c2ccccc21 | -0.4 | -0.29
O=C(NCCc1c[nH]c2ccccc12)c1ccc2c(=O)n(Cc3ccc(Cl)cc3)c(=S)[nH]c2c1 | / | -1.6
O=C(Nc1ccc(F)c(Cl)c1)/C(=C\c1ccc2c(c1)OCO2)NC(=O)c1ccccc1Br | / | 27
CCN1CCN(c2oc(COc3ccccc3C)nc2C#N)CC1 | 0.35 | 0.02
COc1cc(N(C)C)ccc1CN1CCCC(COC(=O)N2CCN(c3cc(C(F)(F)F)nc4cc(C(C)(C)C)nn34)CC2)C1 (centres undefined) | / | 21
O=C(NCCN1C(=O)S/C(=C\c2cccnc2)C1=O)c1cc(S(=O)(=O)N2CCOCC2)ccc1F | 0.4 | /
CCc1[nH]nc(C(=O)O)c1C | -0.45 | /
Cc1ccnc(SCC(=O)C(C)(C)C)n1 | -3.4 | 0.24
O=C(C1CC1)N1N=C2/C(=C/c3ccc4c(c3)OCO4)CCCC2C1c1ccc2c(c1)OCO2 (centres undefined) | -1.2 | /
Cc1cc(C)c(C#N)c(SCC(=O)NCCc2c[nH]c3ccccc23)n1 | 0.05 | /
CC(C)P(=O)(c1c(F)c(F)nc(F)c1F)C(C)C | 1.7 | /
CSc1nsc(SC)c1C(=O)Nc1ccc(Cl)cc1 | 0.15 | -0.14
COC(=O)c1ccc(CSc2nc3c([nH]c4ccccc43)c(=O)n2C)o1 | 0.1 | 0.51
CN(C)c1ccc(/C=C2/N=C(c3ccc(Cl)cc3)OC2=O)cc1 | 0.35 | 0.9
O=S(=O)(NCC1CCCCC1)c1ccc(-n2cnnn2)cc1 | 1.1 | -0.005
CCOC(=O)C1=C(C)Nc2ccccc2[S@]1=O | -0.1 | -0.4
O=C(CSc1nc2ccccc2nc1SCC(=O)c1ccccc1)c1ccccc1 | / | -0.06
CC(CN1CCCC1)OC(=O)c1ccc(F)cc1 (centres undefined) | -0.3 | /
O=C(CCCCl)N1CCCC1=O | 0.9 | 0.38
Cc1cc(C)c(NC(=O)CNC2CC(C)(C)NC(C)(C)C2)c(C)c1 | -0.3 | /
CCOC(=O)C1=C(C(=O)OCC)SC2(S1)C(C(=O)OCC)=C(C(=O)OCC)SC1=C2c2cc(C)ccc2N(C)C1(C)C | / | 0.28
O=C1CC(c2ccccc2)Sc2nc3ccccc3n21 (centres undefined) | -0.25 | /
COC(=O)C1=C(C)NC(=O)CC1c1ccccc1C (centres undefined) | 0.25 | 0.74
O=C(NCCc1ccc(Cl)cc1)c1ccc(-n2cnnn2)cc1 | 1.7 | /
O=S1(=O)CCC(S(=O)(=O)N2CCCC2)C1 (centres undefined) | -0.15 | -1.2
CSC(=NC(C)(C)C)N/N=C/c1cc(Cl)cc(Cl)c1O | 0.55 | -0.87
CC(=O)Nc1ccc(C(C)(C)C)cc1Br | -0.2 | 0.18
Cc1cc(Sc2ccc(C(=O)O)cc2[N+](=O)[O-])c(C)cc1Cl | / | -0.44
Cc1cccc(OCCCC(=O)Nc2ccc(S(=O)(=O)Nc3nc(C)cc(C)n3)cc2)c1 | / | -0.41
C/C=C/C(=O)Nc1ccc(N2CCN(C)CC2)cc1 | -0.1 | 0.6
O=C(CC(Sc1ccc(Br)cc1)C(=O)O)c1ccc(Cl)cc1 (centres undefined) | -1.1 | -0.38

Random excerpt: 2 records from the list.
Molecule | AID504770 | CapD inh
CCOC(=O)C1=C(C)Nc2ccccc2[S@]1=O | -0.1 | -0.4
O=C(CSc1nc2ccccc2nc1SCC(=O)c1ccccc1)c1ccccc1 | / | -0.06

(next part)
SMILES	AID504770	CapD inh
Nc1nncn1C(=O)COc1ccc(Cl)cc1	-0.45	/
Cc1nc2ccccc2c(=O)n1NC(=O)c1cc(-c2ccccc2)nc2ccccc12	/	6.2
CCOC(=O)C1CCCN(C(=O)Cc2c(C(=O)O)[nH]c3ccccc23)C1 (centres undefined)	0.1	0.62
Cc1ccc(NCn2c(=O)oc3ccccc32)cc1	0	5.7
COc1cc(S(=O)(=O)n2ccc(C)n2)ccc1Cl	3	0.54
COc1ccccc1NC(=O)NCc1nc(N)n(C(=O)Nc2ccccc2OC)n1	-0.85	-2.4
O=S(=O)(c1ccc(Br)s1)N1CCN(C2c3ccccc3-c3ccccc32)CC1	/	-1.3
COc1ccccc1Oc1ccc(C(F)(F)F)cc1NC(=O)Cn1c2ccccc2c(=O)c2ccccc21	/	0.63
CCOc1ccc(C(C)C)cc1S(=O)(=O)Nc1ccc(Cl)cn1	1.6	-1.2
O=c1c(-c2ccccc2)coc2c(CN3CCCCC3)c(O)ccc12	-0.4	40
O=C(O)/C=C/c1cc2cccc3c2n(c1=O)CCC3	/	15
O=C(CCc1nc2cccnc2n1Cc1cccs1)NCc1ccccc1	-0.95	6.1
COc1ccnc(Nc2ccc(C)cc2)n1	1.9	-0.15
Cc1cc(C(F)(F)F)n[nH]1	-0.6	0.7
COc1nc2c([nH]1)C(c1ccc(OC(C)C)c(OC)c1)C(C#N)=C(N)O2 (centres undefined)	-1.1	-0.21
COc1ccc(-c2nc(C#N)c(N3CC(C)OC(C)C3)o2)cc1 (centres undefined)	-0.25	48
O=C(O)c1cccn1Cc1ccccc1Cl	0.4	-0.43
Cc1ccc(S(=O)(=O)c2cnc3ccccc3c2N2CCC3(CC2)OCCO3)cc1C	-1.1	/
COc1ccc(/C=C2\C=C(c3ccccc3)N(c3ccc(O)cc3)C2=O)cc1Br	/	-2
c1ccc(C2NCCc3[nH]cnc32)cc1 (centres undefined)	0.35&0	0.44
COCc1cc(=O)[nH]c(Nc2nc3ccccc3o2)n1	-0.3	/
O=C(Cn1nc(-c2ccc(Cl)cc2)c2ccccc2c1=O)N1CCCC1	-0.6	/
COC(=O)c1ccc(C2C(C#N)=C(N)Oc3n[nH]c(-c4ccc(Cl)s4)c32)cc1 (centres undefined)	/	-0.51
Cc1ccc2c(c1)c1c(n2C)C(NC(N)=O)CCC1 (centres undefined)	-0.7	-0.03
Cn1cccc1Cc1nnc2n1CCCCC2	-0.4	/
COc1ccc2c(c1)c(CC(=O)NCc1ccccn1)c(C)n2C(=O)c1ccc(Cl)cc1	/	-0.02
C#CCOC(=O)Nc1ccc(OC)nc1	-0.6	0.48
COc1ccc(-c2nnc(SCc3ccc(F)cc3)n2-c2ccccc2)cc1	0.2	-0.39
O=C(CSc1nnc(-c2ccco2)n1Cc1ccccc1)c1ccccc1	-0.05	/
CN(C)c1ccc(C(c2cc(C(C)(C)C)c(O)c(C(C)(C)C)c2)N2CCCCC2)cc1 (centres undefined)	/	0.045
O=C(C1CCN(S(=O)(=O)c2ccccc2F)CC1)N(CC1CCCO1)c1nc2ccccc2s1 (centres undefined)	-0.35	/
COc1ccc(/C=C2\N=C(c3ccc(Cl)cc3)N(c3ccccc3Cl)C2=O)cc1OC	/	0.31
COc1ccc(/C(=N\NC(=O)c2ccccc2)C2C(=O)N(c3ccccc3)N=C2C)cc1 (centres undefined)	/	0.43
Cc1ccnc(Sc2ccc(NS(=O)(=O)c3ccc(C(C)(C)C)cc3)cc2)n1	/	-1.6
O=C(CN1CCN(C2c3ccccc3-c3ccccc32)CC1)c1ccc2c(c1)OCO2	0.15	0.81
CCCSc1sc(C(=O)OC)c(-c2cccs2)c1C#N	0	-0.11
CC1(C)OC(=O)C(=Cc2ccoc2)C(=O)O1	-0.8	0.39
COc1cc2c(cc1NC(=O)C(C)N1CCc3cc(OC)c(OC)cc3C1)oc1ccccc12 (centres undefined)	0.65	/
COc1ccc(C2C(C#N)=C(N)Oc3cc(C)oc(=O)c32)cc1OCc1ccccc1 (centres undefined)	/	0.1
COc1ccc(C(c2c(O)[nH]c(=O)[nH]c2=O)N(Cc2ccccc2)C(C)C)c(OC)c1OC (centres undefined)	-0.3	-0.29
Cc1ccc(N/C=C/C(=O)c2cccc(OCc3c(F)cccc3Cl)c2)cc1	/	0.075
COc1ccccc1NC(=O)CSC1=NC(c2ccccc2)CC(=O)N1 (centres undefined)	1.2	0.3
CC(=O)c1cccc(NC(=O)c2ccc(N3CC4CC(C3)c3cccc(=O)n3C4)c(NC(=O)c3ccccc3Cl)c2)c1 (centres undefined)	/	-0.94
C=CCC(CC=C)(NS(=O)(=O)c1ccc(C)cc1)c1ccccc1	-0.05	-0.015
Cc1ccc2ncnc(NC3CCCCC3)c2c1	-0.75	4.2
CC1(C)CC(=O)C2=C(C1)OC1=C(C(=O)CC(C)(C)C1)C2c1ccc(OCc2ccc(Cl)cc2Cl)cc1	/	0.45
CC1CCCCN1C(=O)c1c[nH]c2ccc(S(=O)(=O)N(C)c3ccc(Br)cc3)cc2c1=O (centres undefined)	/	0.56
CN(Cc1ccccc1)C(=O)c1cc2sccc2nc1C(F)(F)F	/	-0.08
COc1ccc(OCC(O)CNC(=O)Nc2ccccc2)cc1 (centres undefined)	0.25	0.23
Cn1ccnc1SCc1cn2ccsc2n1	-0.9	-0.71
Cc1ccc(CNC(=O)C2CCCN(S(=O)(=O)c3c(C)[nH]c(=O)[nH]c3=O)C2)cc1 (centres undefined)	-0.55	0.08
O=C(NCc1cccnc1)C1CCC(CNS(=O)(=O)c2cccc3nsnc23)CC1 (centres undefined)	-0.05	-0.26
Cc1cc(C(=O)OCCC2CCCCN2C2=NS(=O)(=O)c3ccccc32)ccc1[N+](=O)[O-] (centres undefined)	/	0.035

In the list so far, 8 have a COOH group.
SMILES	AID504770	CapD inh
O=C(O)CN(CC(=O)Nc1ccc2c(c1)OCCCO2)Cc1ccccc1	-0.35	-0.35
O=C(O)Cn1cc(C(=O)C2CC2)c2ccccc21	-0.4	-0.29
CCc1[nH]nc(C(=O)O)c1C	-0.45	/
Cc1cc(Sc2ccc(C(=O)O)cc2[N+](=O)[O-])c(C)cc1Cl	/	-0.44
O=C(CC(Sc1ccc(Br)cc1)C(=O)O)c1ccc(Cl)cc1 (centres undefined)	-1.1	-0.38
CCOC(=O)C1CCCN(C(=O)Cc2c(C(=O)O)[nH]c3ccccc23)C1 (centres undefined)	0.1	0.62
O=C(O)/C=C/c1cc2cccc3c2n(c1=O)CCC3	/	15
O=C(O)c1cccn1Cc1ccccc1Cl	0.4	-0.43

High-throughput results as filed in PubChem BioAssay.
